UCH37 DUB inh – human UCH37 deubiquitinating enzyme inhibition; purified proteasome/UCH37, Ub-AMC cleavage fluorescence; inhibition, % (test concentration not listed); 330,000 compounds, 0.33% hits;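 active means mean of two replicates above 20%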;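 further: 0% = compound-free wells with enzyme and 100% = wells lacking proteasome; stock transfer was 100 nL into about 20 µL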
Target sequence (Q9Y5K5 whole entry, looked up): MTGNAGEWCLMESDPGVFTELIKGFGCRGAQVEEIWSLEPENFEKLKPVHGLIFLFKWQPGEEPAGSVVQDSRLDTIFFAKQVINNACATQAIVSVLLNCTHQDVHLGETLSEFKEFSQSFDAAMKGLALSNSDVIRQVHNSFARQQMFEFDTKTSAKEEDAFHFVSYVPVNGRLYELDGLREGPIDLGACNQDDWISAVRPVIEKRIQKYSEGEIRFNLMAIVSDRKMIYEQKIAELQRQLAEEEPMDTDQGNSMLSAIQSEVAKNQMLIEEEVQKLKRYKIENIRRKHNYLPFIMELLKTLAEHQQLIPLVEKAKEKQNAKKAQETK
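assay system = human UCH37 enzyme supplied as purified proteasome complex | amount = proteasome at 0.15 nM in the dispensed enzyme solution | schedule = 30 min compound-proteasome preincubation then 25 min substrate reaction, room temperature | measured by = fluorescence, ex 355 nm, em 460 nm | benchmarks = no-proteasome wells (full inhibition) and compound-free wells (no inhibition)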
A1 inh – inhibitors of the anti-apoptotic protein A1, read as caspase activation. caspase activation, % (no concentration beside the values). AID 2462. 330,000 compounds, 0.066% hits. MEF A1-2A-BIM cells, Caspase-Glo 3/7 luminescence, 3 h; percent of clofoctol response, vehicle zero;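 active means over half of replicate activation scores above 10%, or exactly half above 10 with the replicate mean above 10; inconclusive means replicate mean below 10 yet half the replicates above 10; inactive means over half of replicates below 10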;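 further: wells of about 30 µL received 50 nL stock; many hits fall short of the cut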
Beta apoptosis – beta cell apoptosis inhibition; protection from apoptosis, % (concentration not given with the values); 300,000 compounds, 0.8% hits; INS-1E cytokine-induced death, ATP luminescence, 48 h; percent of positive-control rescue, neutral wells zero;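 active means all replicates at 75% or more, or half of them and the mean; inconclusive means half reach 75% but not the mean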;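 further: 0% = cytokine-treated negative control wells and 100% = positive control rescue; higher means more ATP so stronger rescue from cytokine killing; wells of about 40 µL received 100 nL stock; the first replicate is given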
FGF22 binding – FGF22 (human) thermal shift binding | 340,000 compounds, 1.5% hits | Q9HCT0 | AID 651658 | calls only at 9.99 µM | recombinant FGF22 thermal shift, SYPRO orange fluorescence; percent of sucrose octasulfate shift, DMSO zero;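 active means melting point raised past a set limit in the mean and every replicate; inconclusive means no clear call; three in four hits are not shown here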
Target sequence (Q9HCT0 whole entry, looked up): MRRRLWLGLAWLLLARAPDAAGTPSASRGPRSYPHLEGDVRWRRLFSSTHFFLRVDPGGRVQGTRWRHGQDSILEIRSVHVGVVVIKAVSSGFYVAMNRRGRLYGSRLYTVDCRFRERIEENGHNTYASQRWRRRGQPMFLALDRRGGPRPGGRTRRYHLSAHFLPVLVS
T cruzi repl – blocks replication of Trypanosoma cruzi; inhibition, % (test concentration not listed); 300,000 compounds, 1.4% hits; T. cruzi beta-gal in NIH3T3, luminescence, 90 h;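 active means mean inhibition across valid replicates above about 55%, limit read from the data; inconclusive means mean below that limit but half or more replicates reach it; inactive means mean below it, under half of replicates reach it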;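 further: signal also drops with host cell toxicity which is not excluded here; 0% = plate median of DMSO wells and 100% = zero luminescence signal; higher percent means less beta-gal luminescence so fewer parasites; stock transfer was 50 nL into about 50 µL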
MLL AF4-AF9 inh – MLL-AF4/AF9 protein interaction inhibition; inhibition, % at 10 µM; AlphaScreen, biotin-AF4 peptide binding to FLAG-AF9; 350,000 compounds, 0.47% hits; P42568;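 active means every replicate reaching a set inhibition limit, whatever the replicate mean, cut at about 25% in these data; inconclusive means mean inhibition reaches that limit but some replicates miss it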;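 further: 0% = plate neutral control median and 100% = total signal loss; the record names both 10 and 1 µM as test concentration; the first replicate is given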
Target sequence (P42568 whole entry, looked up): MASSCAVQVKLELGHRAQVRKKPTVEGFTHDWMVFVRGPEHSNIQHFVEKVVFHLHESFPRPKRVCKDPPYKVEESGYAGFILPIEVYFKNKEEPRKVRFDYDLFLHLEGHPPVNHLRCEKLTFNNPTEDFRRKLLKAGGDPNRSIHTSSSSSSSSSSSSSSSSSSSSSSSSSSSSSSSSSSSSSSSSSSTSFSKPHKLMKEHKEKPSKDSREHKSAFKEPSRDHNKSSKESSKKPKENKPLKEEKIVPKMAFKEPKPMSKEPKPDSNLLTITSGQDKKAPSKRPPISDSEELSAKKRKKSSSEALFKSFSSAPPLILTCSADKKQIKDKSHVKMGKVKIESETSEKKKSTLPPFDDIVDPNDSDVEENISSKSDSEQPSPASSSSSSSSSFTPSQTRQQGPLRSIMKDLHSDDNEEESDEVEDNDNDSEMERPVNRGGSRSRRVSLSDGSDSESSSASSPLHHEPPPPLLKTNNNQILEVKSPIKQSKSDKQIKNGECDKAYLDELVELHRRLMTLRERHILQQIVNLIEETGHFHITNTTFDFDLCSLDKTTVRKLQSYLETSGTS
Ecoli rRNA inh – inhibitors of bacterial rRNA selective over humanized ribosomes | GFP signal change (wild-type ribosome), % (concentration not given with the values) | 350,000 compounds, 1.6% hits | E. coli WT GFP vs humanized-ribosome RFP mutants, fluorescence, 24 h; active compounds read low; DMSO median 0, no signal -100;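 active means significant combined selectivity score with lowered wild-type GFP, culture density cut under 30%, mutant RFP and density less affected; inactive means any of these conditions unmet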; further: one replicate is shown; some compounds called inactive have numbers as strong as hits
Ecoli growth – inhibitors of Escherichia coli growth | OD600, 23 h; active compounds read low | OD600 absorbance (concentration not given with the values) | 330,000 compounds, 0.21% hits | AID 1053175;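 active means OD600 absorbance below the run mean of sample wells minus 3.6 SD, in any replicate, cut at about 0.56 in these data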;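 further: stock transfer was 300 nL into about 60 µL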
Ecoli rRNA inh OD600 – further read-out of Ecoli rRNA inh, marked with its call; OD600 change, %; measured here: OD600 growth;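 optical density of the mix in the first replicate; 0 = DMSO median and -100 = no signal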
Ecoli rRNA inh RFP – recorded beside Ecoli rRNA inh, whose call it bears; RFP signal change, %; measured here: RFP humanized mutant strains;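 first replicate; 0 = DMSO median and -100 = no signal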
* marks the source's active call; other numbers are inactive results; i = inactive; ? = inconclusive; nt = no result given. A portion of the library; the hit share may differ from the screen's.

SMILES	UCH37 DUB inh	A1 inh	Beta apoptosis	FGF22 binding	T cruzi repl	MLL AF4-AF9 inh	Ecoli rRNA inh	Ecoli rRNA inh OD600	Ecoli rRNA inh RFP	Ecoli growth
O=C(CCCCCCCCC(=O)N1CCCCC1)N1CCCCC1	2.3	nt	nt	i	nt	-2.8	-7	-15	1.1	0.67
CCCCOc1ncnc2c1[nH]c1ccc(OC)cc12	-11	-9.4	12	nt	7	nt	nt	nt	nt	0.72
CS(=O)(=O)N(CC(=O)Nc1ccc2c(c1)OCCO2)c1ccc2c(c1)OCO2	2.2	0.5	-1	nt	-6	nt	nt	nt	nt	0.74
CCn1nc(C)cc1C(=O)N1CCCC(C(=O)c2cccc(OC)c2)C1 (centres undefined)	2.7	0.4	-3	i	4	0.3	3	-8	1.1	0.65
COc1cc(C(C(=O)NC2CCCC2)N(C(=O)Cc2cccs2)C2CC2)cc(OC)c1OC (centres undefined)	1.5	0.3	2	nt	2	-0.8	15	16	12	0.69
NC(=O)c1ccsc1NC(=O)COC(=O)c1ccc(Cl)cc1	-2.6	nt	nt	i	nt	-0.7	2	5	0.8	0.69
C=CCc1c(C)nc(SCc2ccccc2)[nH]c1=O	-0.9	0.4	-1	i	-10	-0.6	6	4	2.5	0.61
Cn1cc(CNC(=O)CC2C(=O)NCCN2CC(C)(C)C)cn1 (centres undefined)	-23	0.4	-4	i	0	-1.2	8	6	2.7	0.68
O=C(COc1ccc(/C=C2/NC(=O)NC2=O)cc1)Nc1ccc(F)cc1	-16	-0.5	-8	i	0	-0.9	-17	-12	-3.3	0.68
COc1cc(C(C(=O)NC2CCCC2)N(C(=O)c2snc(C(N)=O)c2N)c2ccccc2)cc(OC)c1OC (centres undefined)	-74	0.3	3	i	25	1.8	-2	3	-1.6	0.7
COc1ccc(-c2csc(NC(=O)CN3C(=O)CCC3=O)n2)cc1	-0.2	0.3	-1	i	-15	-1.8	-6	0	-1.9	0.62
COc1ccccc1CN1CC(C(=O)N(C)CCCn2nc(C)cc2C)CCC1=O (centres undefined)	4.9	0.2	-3	i	2	-1.9	-1	2	0.8	0.71
COC(=O)c1cc(OC)c(OC)cc1NC(=O)c1cccc(OC)c1OC	0.6	0.6	0	nt	22	-3.0	-7	-4	2.2	0.7
CC1CCc2c(nc3nc[nH]n3c2=O)C1 (centres undefined)	0.3	0.5	0	nt	-2	nt	nt	nt	nt	0.76
Cc1ccc(COc2ccc3c(c2)OCO3)cc1	5.5	-8.1	2	i	-8	1.7	0	1	-1.9	0.65
S=C(NC1CCCC1)N1CCN(c2ccccn2)CC1	1.7	1.2	5	i	2	-10	0	2	0.5	0.66
CC(C)(C)c1ccc(C(=O)/C=C2\NC(=O)CS2)cc1	9.9	-3.3	7	nt	21	nt	nt	nt	nt	0.73
Nn1c(SCC(=O)NCCCc2ccccc2)nnc1-c1cccnc1	0.3	0.3	4	i	-9	-17	5	5	-0.2	0.65
CCN(C[C@H]1N[C@@](Cc2ccccc2)(C(=O)OC)[C@H]2C(=O)N(Cc3ccccc3)C(=O)[C@@H]12)S(=O)(=O)c1ccc(C(C)(C)C)cc1	1.3	0.1	11	i	nt	1.6	-1	4	-9.9	0.73
CN1C(=O)S/C(=C/c2ccc(OCc3cccc(C(=O)O)c3)cc2)C1=O	7.5	-5.6	0	i	-11	-4.0	-2	0	-4.0	0.62
O=c1c2c(nc3n1CCCCC3)-c1ccccc1CC21CCCC1	2.3	0.4	-6	i	26	2.0	-36*	-12*	-10*	0.67
CCOC(=O)c1cnc(-n2nc(C)cc2C)nc1Nc1cccc(C(C)=O)c1	0.8	0.3	9	nt	-12	nt	nt	nt	nt	0.71
O=C(O)CSc1cc(NS(=O)(=O)c2cccc([N+](=O)[O-])c2)c2ccccc2c1O	30*	nt	nt	i	-20	nt	-34*	-9.6*	-5.6*	0.69
CCOc1cc(C(=O)NN=C2CCCC2)cc(OCC)c1OCC	1.7	-0.1	-5	i	-7	-3.2	2	4	0.8	0.69
CCCC1(C(=O)OCC)NC(c2ccc(O)cc2)C2C(=O)N(c3cccc(C(C)=O)c3)C(=O)C21 (centres undefined)	2.1	0.2	-9	i	-9	-0.4	-12	-12	-1.3	0.72

(list continues)
SMILES	UCH37 DUB inh	A1 inh	Beta apoptosis	FGF22 binding	T cruzi repl	MLL AF4-AF9 inh	Ecoli rRNA inh	Ecoli rRNA inh OD600	Ecoli rRNA inh RFP	Ecoli growth
COc1cccc(NC(=O)Nc2nnc(N3CCCCC3C)s2)c1 (centres undefined)	3.5	-1.5	nt	i	9	?	-14	-32	-2.2	0.72
CCCCCc1nnc(NC(=O)C2=COCCO2)s1	-0.3	-4.0	-6	i	-22	-2.0	-3	-5	-0.1	0.61
CCCc1cc(=O)[nH]c(SCC(=O)N2CCCc3ccccc32)n1	0.2	0.3	-2	i	-6	-2.6	0	-2	-12	0.67
N#CC(C#N)=Cc1c(N2CCN(c3ccccc3)CC2)nc2ccccn2c1=O	-43	-0.9	0	i	-6	15	-5	-1	4.4	0.68
c1ccc2c(c1)nc(N1CCOCC1)c1ccccc12	-15	0.9	-4	i	-4	-11	-31	-47	-6.2	0.59
COc1ccc(C(C)NC(=S)NC2CCCC2)cc1OC (centres undefined)	4.7	0.6	3	nt	-31	nt	nt	nt	nt	0.71
CC(=O)N[C@@H]1c2c(ccc3ccccc23)OC[C@@H]1COC(C)=O	1.9	-0.5	-5	i	-19	-2.2	11	2	-0.2	0.67
CCc1cc(=O)n2[nH]c(-c3ccccc3)c(-c3ccccc3)c2n1	-17	1.1	6	i	3	-0.5	8	8	-1.6	0.65
O=C(c1ccc(Br)cc1)c1cc([N+](=O)[O-])ccc1N1CCOCC1	1.7	1.4	13	i	-12	16	1	-9	-4.2	0.7
CN(C(=O)CN1C(=O)NC2(CCc3ccccc32)C1=O)C1CCS(=O)(=O)C1 (centres undefined)	-2.3	-0.5	-2	i	-4	0.9	7	11	1.6	0.68
CCc1ccc(NC2=CC(=O)C(=O)c3ccccc32)cc1	20	nt	nt	i	nt	10	-24*	-16*	-1.5*	0.54
COc1cc(CNCCCN2CCOCC2)cc(Cl)c1OCC(=O)NC(C)(C)C	2.5	0.3	0	i	35	-0.7	9	1	0.0	0.65
O=C(CC1C(=O)NC2CCCCC2N1C(=O)c1ccc([N+](=O)[O-])cc1)Nc1ccccc1 (centres undefined)	2.1	1.1	1	i	6	5.2	11	15	4.1	0.71
Cc1c(OCc2ccccc2)c(=O)ccn1Cc1ccc(F)cc1	2.6	1.4	17	i	-7	0.6	-47	-51	-12	0.66
CC(=O)Nc1ccccc1-c1nnc(SCc2ccccc2Cl)[nH]c1=O	8.4	0.9	0	nt	14	nt	nt	nt	nt	0.71
CS(=O)(=O)c1ccc(-c2nnc(NC(=O)c3ccco3)o2)cc1	-6.8	0.5	nt	i	-13	-6.0	2	8	-2.8	0.69
CCOC(=O)CCCCC(=O)c1[nH]c(=O)[nH]c1CSc1nnc2c3ccccc3n(C(C)C)c2n1	6.2	0.1	2	nt	-5	nt	nt	nt	nt	0.7
CC(=O)C1=C(C)OC(N)=C(C#N)C1c1ccco1 (centres undefined)	-0.8	1.4	-6	nt	-14	nt	nt	nt	nt	0.73
CCOC(=O)N1CCC(=NNc2ccc(S(N)(=O)=O)cc2[N+](=O)[O-])CC1	3.1	-0.4	-2	nt	24	1.3	10	6	-1.1	0.66
COc1ccc(C(=O)NCC(=O)N=Nc2c(O)n(Cc3ccccc3)c3ccccc23)cc1OC	4.6	0.9	-19	i	25	8.2	-3	-7	0.6	0.72
Cc1ccc(O)c(N=NC2=C(O)CC(C)(C)CC2=O)c1	16	-1.2	nt	i	-1	4.2	-43	-54	-9.4	0.68
CN(C)c1ccc(N=Nc2nc3ccccc3n2C)cc1	7.5	-16	62	i	41	6.2	16	8	0.1	0.66
Cc1nc2cnccc2n1C	6.0	-0.1	-2	nt	9	-1.4	4	6	-0.4	0.71
COc1ccc(Nc2nc3ccccc3nc2NS(=O)(=O)c2ccc(NC(C)=O)cc2)cc1	3.0	0.0	0	i	-19	2.6	1	-3	5.0	0.71
O=c1[nH]c(SCc2cccc(Cl)c2)nc2c1CCCC2	4.8	0.7	1	nt	-8	nt	nt	nt	nt	0.7

Next section
SMILES	UCH37 DUB inh	A1 inh	Beta apoptosis	FGF22 binding	T cruzi repl	MLL AF4-AF9 inh	Ecoli rRNA inh	Ecoli rRNA inh OD600	Ecoli rRNA inh RFP	Ecoli growth
O=c1[nH]c(C2CCCN(S(=O)(=O)c3ccccc3F)C2)nc2c1nnn2Cc1ccccc1Cl (centres undefined)	4.6	-1.1	8	i	7	1.8	-6	-18	5.5	0.71
CCOC(=O)Nc1oc2ccccc2c(=O)c1CN1CCOCC1	-3.6	-0.2	8	nt	8	nt	-6	-1	2.0	0.69
COc1ccc(NC2=C(C(C)=O)C(c3ccc(OC)c(OC)c3)C(C(C)=O)C(C)(O)C2)cc1 (centres undefined)	10	0.1	6	nt	-4	nt	nt	nt	nt	0.74
Cn1c(=O)c2[nH]c(CN3CCN(Cc4ccccc4)CC3)nc2n(C)c1=O	-0.2	-0.2	0	nt	14	nt	nt	nt	nt	0.71
O=C(COc1cccnc1[N+](=O)[O-])N1CCC(Cc2ccccc2)CC1	5.0	1.0	-4	i	nt	-3.6	-23	-9	15	0.71
O=C(c1ccc2[nH]c(=O)c(=O)[nH]c2c1)N1CCN(Cc2ccccc2)CC1	-46	1.8	-5	i	-8	-0.1	12	14	0.6	0.68
CCNC(=O)C1CCCc2c1[nH]c1ccc(Cl)cc21 (centres undefined)	2.1	0.4	-3	nt	1	nt	nt	nt	nt	0.66
Cc1ccc(C)c(S(=O)(=O)N2CCN(C(C(=O)Nc3ccc(F)cc3)c3ccccc3)CC2)c1 (centres undefined)	3.6	-0.4	0	i	30	6.0	14	9	-2.1	0.69

2 successive records from above, quoted:
SMILES	UCH37 DUB inh	A1 inh	Beta apoptosis	FGF22 binding	T cruzi repl	MLL AF4-AF9 inh	Ecoli rRNA inh	Ecoli rRNA inh OD600	Ecoli rRNA inh RFP	Ecoli growth
COc1ccc(NC2=C(C(C)=O)C(c3ccc(OC)c(OC)c3)C(C(C)=O)C(C)(O)C2)cc1 (centres undefined)	10	0.1	6	nt	-4	nt	nt	nt	nt	0.74
Cn1c(=O)c2[nH]c(CN3CCN(Cc4ccccc4)CC3)nc2n(C)c1=O	-0.2	-0.2	0	nt	14	nt	nt	nt	nt	0.71
